UUG fidelity: yeast start codon fidelity modulation; S. cerevisiae UUG-firefly luciferase reporter, luminescence/redox ratio; actives 0.13% (n = 350,000); activity score, % at 18.7 µM;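 active = replicate mean at a twofold rise or more, about +100% in these data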;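 note: firefly luciferase made from a UUG start codon reports start codon fidelity; reporter light over untreated wells divided by growth signal over untreated wells; some hits fall short of that in this replicate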
HIV Env fusion: blocks HIV Env-driven cell-cell fusion. actives 1.1% (n = 360,000). HeLa-JRFL Env/CEM21 cell fusion, luciferase. inhibition, % at 12.3 µM. AID 651610;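 active = mean replicate inhibition score of at least 50 and every replicate individually at or above 50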;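 note: 0% = plate neutral controls and 100% = maraviroc near 300 nM; one replicate is shown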
* = called active by the depositor; [ ] = another dose, or the depositor's remark. Only part of the results is shown. The share of hits here may be higher or lower than overall.

Values run as follows: UUG fidelity, HIV Env fusion
1	C[C@H](CO)N1C[C@H](C)[C@H](CN(C)Cc2ccc(-c3ccccc3)cc2)Oc2ccc(NC(=O)NC3CCCCC3)cc2CC1=O
→ -5, -43[16.7 µM]
2	O=C(C[C@@H]1C=C[C@H](NC(=O)C2CCC2)[C@@H](CO)O1)NCc1ccncc1
→ -2, -8[16.7 µM]
3	C[C@H](CO)N1C[C@H](C)[C@@H](CN(C)Cc2ccc(C(F)(F)F)cc2)Oc2ccc(NC(=O)Nc3ccccc3)cc2CC1=O
→ 7, 16[16.7 µM]
4	C[C@@H]1CCCCO[C@@H](CN(C)C(=O)Cc2ccccc2)[C@@H](C)CN([C@@H](C)CO)C(=O)c2cc(NC(=O)Nc3ccc(C(F)(F)F)cc3)ccc2O1
→ -10, -4[16.7 µM]
5	O=C(Nc1ccc(F)cc1)Nc1ccc2c(c1)[C@H]1C[C@@H](CC(=O)N3CCOCC3)O[C@H](CO)[C@H]1O2
→ -4, 17[16.7 µM]
6	C[C@H]1CCCCO[C@@H](CN(C)Cc2ccc(C(=O)O)cc2)[C@@H](C)CN([C@@H](C)CO)C(=O)c2cc(NC(=O)Nc3ccc(F)cc3)ccc2O1
→ 17, 34[16.7 µM]
7	Cc1ccc(S(=O)(=O)N(C)C[C@H]2Oc3ccc(NC(=O)CCCCCC(=O)Nc4ccccc4N)cc3CC(=O)N([C@@H](C)CO)C[C@@H]2C)cc1
→ 2, 1[16.7 µM]
8	C[C@@H]1CN([C@@H](C)CO)C(=O)Cc2cc(NC(=O)CCN3CCOCC3)ccc2O[C@@H]1CN(C)Cc1ccc(C(=O)O)cc1
→ 7, 0[16.7 µM]
9	C[C@H](CO)N1C[C@H](C)[C@H](CN(C)Cc2ccccc2)Oc2ccc(N(C)C)cc2C1=O
→ -24, -12[16.7 µM]
10	CNC[C@@H]1Oc2ccc(NC(=O)CCCN(C)C)cc2C(=O)N([C@H](C)CO)C[C@@H]1C
→ 5, -5[16.7 µM]
11	C[C@@H]1CCCCO[C@@H](CN(C)S(=O)(=O)c2cn(C)cn2)[C@@H](C)CN([C@H](C)CO)C(=O)c2cc(NS(=O)(=O)c3ccc(F)cc3)ccc2O1
→ -7, 22[16.7 µM]
12	CNC[C@@H]1Oc2cc(C#Cc3cccc(OC)c3)ccc2S(=O)(=O)N([C@@H](C)CO)C[C@@H]1C
→ 10, -19[16.7 µM]
13	C[C@@H]1CN([C@@H](C)CO)S(=O)(=O)c2ccc(C#Cc3ccccc3)cc2O[C@@H]1CN(C)S(=O)(=O)c1ccccc1F
→ -9, -180[16.7 µM]
14	Cc1noc(C)c1S(=O)(=O)N(C)C[C@@H]1Oc2ccc(NC(=O)NC(C)C)cc2CC(=O)N([C@H](C)CO)C[C@@H]1C
→ -2, 48[16.7 µM]
15	COc1cccc(CNC(=O)C[C@@H]2CC[C@H](NC(=O)C3CC3)[C@H](CO)O2)c1
→ -8, -1[16.7 µM]
16	C[C@@H]1CCCCO[C@H](CN(C)C(=O)Nc2ccc(F)cc2)[C@H](C)CN([C@H](C)CO)C(=O)c2cc(NS(=O)(=O)c3cccs3)ccc2O1
→ -7, -1[16.7 µM]
17	COc1ccc(NC(=O)N(C)C[C@@H]2OCCCC[C@H](C)Oc3ccc(NC(=O)Cc4ccccc4)cc3C(=O)N([C@H](C)CO)C[C@@H]2C)cc1
→ 47, -1[16.7 µM]
18	C[C@H](CO)N1C[C@H](C)[C@@H](CN(C)CC2CC2)Oc2ccc(NS(=O)(=O)c3ccccc3)cc2C1=O
→ 4, 11[16.7 µM]
19	COc1cccc(NC(=O)C[C@@H]2CC[C@H]3[C@@H](COc4ccc(NC(C)=O)cc4C(=O)N3C)O2)c1
→ 16, -7[16.7 µM]
20	C[C@@H]1CN([C@H](C)CO)C(=O)c2cccc(NS(=O)(=O)c3cccs3)c2O[C@@H]1CN(C)CC1CCCCC1
→ 0, -8[16.7 µM]

A draw from above in order of molar mass, low to high:
Values run as follows: UUG fidelity, HIV Env fusion
9	C[C@H](CO)N1C[C@H](C)[C@H](CN(C)Cc2ccccc2)Oc2ccc(N(C)C)cc2C1=O
→ -24, -12[16.7 µM]
12	CNC[C@@H]1Oc2cc(C#Cc3cccc(OC)c3)ccc2S(=O)(=O)N([C@@H](C)CO)C[C@@H]1C
→ 10, -19[16.7 µM]
4	C[C@@H]1CCCCO[C@@H](CN(C)C(=O)Cc2ccccc2)[C@@H](C)CN([C@@H](C)CO)C(=O)c2cc(NC(=O)Nc3ccc(C(F)(F)F)cc3)ccc2O1
→ -10, -4[16.7 µM]

Returning to the listing, starting 2 compounds before the break.
Values run as follows: UUG fidelity, HIV Env fusion
19	COc1cccc(NC(=O)C[C@@H]2CC[C@H]3[C@@H](COc4ccc(NC(C)=O)cc4C(=O)N3C)O2)c1
→ 16, -7[16.7 µM]
20	C[C@@H]1CN([C@H](C)CO)C(=O)c2cccc(NS(=O)(=O)c3cccs3)c2O[C@@H]1CN(C)CC1CCCCC1
→ 0, -8[16.7 µM]
21	CCCC#Cc1cnc2c(c1)C(=O)N([C@@H](C)CO)C[C@@H](C)[C@@H](CN(C)C(=O)C1CCC1)O2
→ 15, 12[16.7 µM]
22	C[C@H]1CN([C@@H](C)CO)S(=O)(=O)c2ccc(C#Cc3ccc(F)cc3)cc2O[C@H]1CN(C)C(=O)NC1CCCCC1
→ -1, 16[16.7 µM]
23	Cc1ccc(S(=O)(=O)Nc2cccc3c2O[C@@H](CN(C)Cc2ccc(-c4ccccc4)cc2)[C@@H](C)CN([C@H](C)CO)C3=O)cc1
→ 1, -60[16.7 µM]
24	C[C@@H]1CN([C@@H](C)CO)C(=O)c2cc(-c3ccccc3)cnc2O[C@H]1CN(C)Cc1cccnc1
→ -5, 8[16.7 µM]
25	CN(C)CC(=O)N[C@H]1CC[C@@H](CCNS(=O)(=O)c2ccccc2)O[C@H]1CO
→ 6, 7[16.7 µM]
26	C[C@H](CO)N1C[C@H](C)[C@H](CN(C)C(=O)NC2CCCC2)Oc2ncc(C3=CCCC3)cc2C1=O
→ 0, -10[16.7 µM]
27	CCCOc1ccc(F)cc1-c1cc(C(=O)Nc2cc(OC)c(OC)c(OC)c2)[nH]n1
→ -4, 6
28	C[C@@H]1CN([C@@H](C)CO)C(=O)c2cc(NC(=O)Nc3cccc4ccccc34)ccc2O[C@@H]1CN(C)Cc1ccc(Cl)c(Cl)c1
→ 5, 21[16.7 µM]
29	CCCN1C[C@@H](C)[C@H](OC)CN(C)C(=O)c2cc(NC(=O)c3ccc(F)cc3)ccc2OC[C@@H]1C
→ 6, -6[16.7 µM]
30	C[C@H](CO)N1C[C@H](C)[C@@H](CN(C)S(=O)(=O)c2ccccc2F)Oc2cc(C#Cc3cccc(F)c3)ccc2S1(=O)=O
→ -10, 38[16.7 µM]
31	CC(=O)N(C)C[C@H]1Oc2ncc(-c3cccc(C#N)c3)cc2C(=O)N([C@H](C)CO)C[C@H]1C
→ -8, 0[16.7 µM]
32	C[C@H]1CN([C@@H](C)CO)C(=O)c2cc(NS(=O)(=O)c3ccc(Cl)cc3)ccc2O[C@H]1CN(C)Cc1ccc(C(F)(F)F)cc1
→ 4, -12[16.7 µM]
33	Cc1noc(C)c1NC(=O)Nc1cccc2c1O[C@H](CN(C)Cc1ccccc1)[C@@H](C)CN([C@H](C)CO)C2=O
→ -2, -18[16.7 µM]
34	C[C@@H]1CN([C@H](C)CO)C(=O)c2cccc(NS(C)(=O)=O)c2O[C@@H]1CN(C)Cc1ccc(-c2ccccc2)cc1
→ 2, 1[16.7 µM]
35	C[C@@H]1CN([C@H](C)CO)C(=O)Cc2cc(NC(=O)Nc3ccc4c(c3)OCO4)ccc2O[C@H]1CN(C)C(=O)Nc1cccc2ccccc12
→ -8, 22[16.7 µM]
36	C[C@@H]1CN([C@@H](C)CO)C(=O)c2cc(NC(=O)Cc3ccccc3)ccc2O[C@@H](C)CCCCO[C@@H]1CN(C)Cc1ccccc1
→ 14, 4[16.7 µM]
37	CCCC(=O)Nc1ccc2c(c1)C(=O)N(C)[C@H]1CC[C@@H](CC(=O)NCc3ccccc3F)O[C@@H]1CO2
→ 12, -11[16.7 µM]
38	CC(C)NC(=O)N[C@H]1CC[C@@H](CC(=O)NC2Cc3ccccc3C2)O[C@@H]1CO
→ -14, 8[16.7 µM]
39	C[C@H]1CN([C@@H](C)CO)C(=O)Cc2cc(NC(=O)CCC(F)(F)F)ccc2O[C@H]1CN(C)Cc1ccc(Cl)c(Cl)c1
→ -4, -18[16.7 µM]
40	O=C(NCCN1CCOCC1)[C@@]1(CCS(=O)(=O)c2ccccc2)COC(c2ccc(OCCCO)cc2)=N1
→ 30, -30[16.7 µM]

Molecules listed so far containing a COOH group:
Values run as follows: UUG fidelity, HIV Env fusion
6	C[C@H]1CCCCO[C@@H](CN(C)Cc2ccc(C(=O)O)cc2)[C@@H](C)CN([C@@H](C)CO)C(=O)c2cc(NC(=O)Nc3ccc(F)cc3)ccc2O1
→ 17, 34[16.7 µM]
8	C[C@@H]1CN([C@@H](C)CO)C(=O)Cc2cc(NC(=O)CCN3CCOCC3)ccc2O[C@@H]1CN(C)Cc1ccc(C(=O)O)cc1
→ 7, 0[16.7 µM]

Next section:
cpd	SMILES	UUG fidelity	HIV Env fusion
41	Cc1ccc(S(=O)(=O)N(C)C[C@@H]2Oc3c(NS(=O)(=O)c4cccs4)cccc3C(=O)N([C@@H](C)CO)C[C@@H]2C)cc1	-3	-27[16.7 µM]
42	CCNC(=O)C[C@H]1CC[C@H](NC(=O)NC2CCCCC2)[C@@H](CO)O1	17	12[16.7 µM]
43	Cc1ccc(S(=O)(=O)N[C@@H]2CC[C@H](CCNC(=O)Nc3ccc(Cl)cc3)O[C@@H]2CO)cc1	13	-9[16.7 µM]
44	C[C@@H]1CN([C@H](C)CO)C(=O)c2cc(NC(=O)NC3CCCCC3)ccc2O[C@@H]1CN(C)C(=O)Nc1ccccc1	11	5[16.7 µM]
45	CN(C)C(=O)C[C@H]1C[C@H]2c3cc(NC(=O)C4CCOCC4)ccc3O[C@H]2[C@@H](CO)O1	-14	-20[16.7 µM]
46	C[C@H](CO)N1C[C@H](C)[C@H](CN(C)C(=O)Nc2ccc(C(F)(F)F)cc2)Oc2c(NC(=O)Nc3ccc(C(F)(F)F)cc3)cccc2C1=O	-18	22[16.7 µM]
47	NCC[C@H]1CC[C@H](NC(=O)C2CCCC2)[C@@H](CO)O1	-10	24[16.7 µM]
48	Cc1ccc(S(=O)(=O)N(C)C[C@@H]2OCCCC[C@H](C)Oc3ccc(NS(=O)(=O)c4ccc(Cl)cc4)cc3C(=O)N([C@@H](C)CO)C[C@@H]2C)cc1	6	46[16.7 µM]
49	Cc1cc(C(=O)Nc2cccc3c2O[C@H](CN(C)S(=O)(=O)c2ccccc2)[C@@H](C)CN([C@H](C)CO)C3=O)n(C)n1	20	-5[16.7 µM]
50	C[C@@H]1CCCCO[C@H](CN(C)CC2CCCCC2)[C@H](C)CN([C@@H](C)CO)C(=O)c2cc(NC(=O)Cc3ccccc3)ccc2O1	10	-8[16.7 µM]
51	C[C@H]1CN([C@@H](C)CO)S(=O)(=O)c2ccc(C#Cc3cccc(F)c3)cc2O[C@H]1CN(C)CC1CC1	9	19[16.7 µM]
52	Cc1ccc(S(=O)(=O)N(C)C[C@@H]2Oc3ccc(NC(=O)CCCCCC(=O)Nc4ccccc4N)cc3CC(=O)N([C@H](C)CO)C[C@H]2C)cc1	4	3[16.7 µM]
53	C[C@@H]1CCCCO[C@H](CN(C)C(=O)Nc2ccc3c(c2)OCO3)[C@@H](C)CN([C@@H](C)CO)C(=O)c2cc(NC(=O)CCCN(C)C)ccc2O1	4	9[16.7 µM]
54	COc1ccc(S(=O)(=O)Nc2ccc3c(c2)C(=O)N([C@H](C)CO)C[C@H](C)[C@H](CN(C)Cc2ccc(-c4ccccc4)cc2)O3)cc1	12	-10[16.7 µM]
55	CC(=O)N(C)C[C@H]1Oc2cc(-c3ccc(C#N)cc3)ccc2S(=O)(=O)N([C@@H](C)CO)C[C@@H]1C	28	19[16.7 µM]
56	C[C@H]1CN([C@@H](C)CO)C(=O)Cc2cc(NC(=O)Nc3ccc(F)cc3)ccc2O[C@@H]1CN(C)Cc1ccc(Cl)c(Cl)c1	6	-4[16.7 µM]
57	C[C@H](CO)N1C[C@H](C)[C@H](CN(C)C(=O)Nc2ccc3c(c2)OCO3)Oc2c(NS(C)(=O)=O)cccc2C1=O	9	-21[16.7 µM]
58	C[C@H](CO)N1C[C@H](C)[C@H](CN(C)S(=O)(=O)c2ccccc2)OCCCC[C@H](C)Oc2ccc(NC(=O)c3ccccc3)cc2C1=O	-15	-73[16.7 µM]
59	CN(C)CC(=O)Nc1ccc2c(c1)[C@H]1C[C@H](CC(=O)NCCN3CCCCC3)O[C@H](CO)[C@H]1O2	5	-8[16.7 µM]
60	C[C@@H]1CN([C@H](C)CO)S(=O)(=O)c2ccc(C#Cc3ccncc3)cc2O[C@H]1CN(C)C(=O)C1CCCCC1	1	8[16.7 µM]
61	C[C@@H]1CCCCO[C@@H](CN(C)C(=O)Cc2ccccc2)[C@H](C)CN([C@@H](C)CO)C(=O)c2cc(N(C)C)ccc2O1	14	-15[16.7 µM]
62	CCNC(=O)Nc1ccc2c(c1)C(=O)N(C)[C@H]1CC[C@@H](CC(=O)NCc3cccc(F)c3)O[C@H]1CO2	1	-12[16.7 µM]
63	C[C@@H]1CN([C@H](C)CO)S(=O)(=O)c2ccc(-c3ccncc3)cc2O[C@H]1CN(C)C(=O)c1cccc(F)c1	-2	-14[16.7 µM]
64	C[C@@H]1CN([C@H](C)CO)C(=O)c2cc(NS(=O)(=O)c3ccc(F)cc3)ccc2O[C@@H](C)CCCCO[C@@H]1CN(C)S(=O)(=O)c1ccc(Cl)cc1	7	-11[16.7 µM]
65	Cc1ccc(S(=O)(=O)N(C)C[C@@H]2OCCCC[C@@H](C)Oc3ccc(NS(=O)(=O)c4cn(C)cn4)cc3C(=O)N([C@H](C)CO)C[C@@H]2C)cc1	-8	-8[16.7 µM]
66	C[C@H]1CN([C@@H](C)CO)C(=O)c2cc(C#CCC3CCCC3)cnc2O[C@H]1CN(C)C(=O)CN(C)C	8	9[16.7 µM]
